High-throughput results deposited in PubChem by several laboratories.
HNF4A DNA FP: change in binding of human HNF4 alpha to DNA. P41235. HNF4a-FITC DNA binding, fluorescence polarization, 1 h. activity change, % at 10 µM. 360,000 tested, 0.3% active; in the data active = activity change above about 30%, passing the limit was not always enough;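 note: controls were the assay level and a saturating level of protein; the project sought stronger binding though the title names inhibitors; some compounds called inactive have numbers as strong as hits; positive values seem to mean higher polarization but the record does not say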
Target sequence (P41235 whole entry, looked up): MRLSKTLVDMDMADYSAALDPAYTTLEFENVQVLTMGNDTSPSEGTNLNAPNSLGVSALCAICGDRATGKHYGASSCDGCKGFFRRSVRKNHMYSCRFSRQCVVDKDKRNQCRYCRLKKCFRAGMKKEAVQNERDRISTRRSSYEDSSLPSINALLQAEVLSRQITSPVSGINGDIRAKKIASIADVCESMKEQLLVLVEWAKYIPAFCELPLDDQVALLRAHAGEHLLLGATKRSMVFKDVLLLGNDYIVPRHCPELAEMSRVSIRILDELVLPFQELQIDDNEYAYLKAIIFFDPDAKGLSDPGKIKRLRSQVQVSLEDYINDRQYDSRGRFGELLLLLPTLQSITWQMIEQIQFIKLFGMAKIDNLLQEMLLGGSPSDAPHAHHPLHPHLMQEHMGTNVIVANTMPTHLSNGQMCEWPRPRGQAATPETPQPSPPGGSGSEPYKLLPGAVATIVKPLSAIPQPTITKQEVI
FGF22 binding: shifts melting point of recombinant human FGF22; Q9HCT0; recombinant FGF22 thermal shift, SYPRO orange fluorescence; percent of sucrose octasulfate shift, DMSO zero; calls only at 9.99 µM; 340,000 tested, 1.5% active;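 active = melting point raised past a set limit in the mean and every replicate; inconclusive = no clear call; three in four hits are not shown here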
Target sequence (Q9HCT0 whole entry, looked up): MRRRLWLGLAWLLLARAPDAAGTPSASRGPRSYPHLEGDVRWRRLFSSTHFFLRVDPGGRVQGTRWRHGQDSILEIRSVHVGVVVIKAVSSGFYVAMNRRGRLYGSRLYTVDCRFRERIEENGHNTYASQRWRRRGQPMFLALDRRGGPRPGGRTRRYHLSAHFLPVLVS
LANA-H2B inh: blocks KSHV LANA binding to histone H2A/H2B; AID 2629; Q9QR71; cell-free LANA-H2A/H2B peptide, fluorescence polarization; inhibition, % (test concentration not listed); 320,000 tested, 0.6% active; in the data active = inhibition mostly above about 10%, no sharp cut-off; inactive = mostly below about 6.7%;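 note: stock transfer was 7.5 nL into about 10 µL; 0% = median of vehicle wells and 100% = median of positive control wells; one replicate is shown; the record names a cut of 25% in any replicate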
ALR inh: inhibitors of human sulfhydryl oxidase ALR; inhibition, % (no concentration beside the values); purified ALR, DTT oxidation, H2O2 HRP-luminol luminescence; P55789; 290,000 tested, 3.8% active; AID 485317;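 active = mean and each replicate at 75% or more; inconclusive = only one of the two met; inactive = neither met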;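 note: stock transfer was 7.5 nL into about 7.5 µL; 0% = neutral wells and 100% = wells with inactivated enzyme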
Ecoli growth: blocks Escherichia coli growth. OD600 absorbance (concentration not given with the values). 330,000 tested, 0.21% active. OD600, 23 h; stronger effect = lower value;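 active = OD600 absorbance below the run mean of sample wells minus 3.6 SD, in any replicate, cut at about 0.56 in these data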;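 note: stock transfer was 300 nL into about 60 µL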
UCH37 DUB inh: inhibitors of human deubiquitinating enzyme UCH37; Q9Y5K5; purified proteasome/UCH37, Ub-AMC cleavage fluorescence; inhibition, % (no concentration beside the values); 330,000 tested, 0.33% active; AID 588478;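 active = mean of two replicates above 20%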;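 note: 0% = compound-free wells with enzyme and 100% = wells lacking proteasome; stock transfer was 100 nL into about 20 µL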
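assay system = human UCH37 enzyme supplied as purified proteasome complex | amount = proteasome at 0.15 nM in the dispensed enzyme solution | schedule = 30 min compound-proteasome preincubation then 25 min substrate reaction, room temperature | measured by = fluorescence, ex 355 nm, em 460 nm | benchmarks = no-proteasome wells (full inhibition) and compound-free wells (no inhibition)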
Beta2AR agonist: activates human beta-2 adrenergic receptor causing internalization | P07550 | Am2.2-beta2AR cells, FAP receptor internalization, flow cytometry; reference of the scale not given here | response, % (concentration not given with the values) | 340,000 tested, 0.43% active | AID 504454;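 active = response above a set limit, near 3 SD of response in nonfluorescent compounds, cut at about 42% in these data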;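 note: stock transfer was 100 nL into about 11 µL; a reference agonist was the positive control; negative values mostly stem from fluorescent compounds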
Target sequence (P07550 whole entry, looked up): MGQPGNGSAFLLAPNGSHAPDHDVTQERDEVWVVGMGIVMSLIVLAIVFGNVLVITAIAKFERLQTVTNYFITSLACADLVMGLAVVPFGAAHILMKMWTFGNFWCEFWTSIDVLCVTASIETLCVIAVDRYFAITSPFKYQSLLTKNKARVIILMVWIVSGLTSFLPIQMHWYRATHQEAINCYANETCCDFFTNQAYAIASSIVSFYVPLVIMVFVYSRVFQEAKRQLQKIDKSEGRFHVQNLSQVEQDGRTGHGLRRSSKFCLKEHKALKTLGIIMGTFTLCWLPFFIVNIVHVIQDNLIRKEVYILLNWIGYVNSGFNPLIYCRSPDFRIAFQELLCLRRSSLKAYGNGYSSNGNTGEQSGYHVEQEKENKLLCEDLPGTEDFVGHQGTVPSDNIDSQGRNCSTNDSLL
Numbers without * were called inactive; i = inactive; ? = inconclusive; . = not tested or not shown.

SMILES	HNF4A DNA FP	FGF22 binding	LANA-H2B inh	ALR inh	Ecoli growth	UCH37 DUB inh	Beta2AR agonist
CC(C)[C@H](NC(=O)OCc1ccccc1)C(=O)OCC(=O)NC1(C#N)CCCC1	5.0	i	-1.4	-2	0.71	1.0	3
O=C(c1ccccc1)N1CCC(c2nc(-c3ccc(S(=O)(=O)NCC4CCCO4)cc3)no2)CC1 (stereo unspecified)	-4.9	.	-1.7	-4	0.67	1.3	4
Cc1occc1C(=O)N/N=C/c1sc(N2CCOCC2)nc1-c1ccccc1	4.2	i	6.7	.	.	.	7
CCN(C(=O)CSc1nc(N)cc(=O)[nH]1)c1c(N)n(Cc2ccccc2)c(=O)[nH]c1=O	1.1	i	-2.6	0	0.71	0.4	-7
C[C@H](O)[C@H](O)[C@H]1CNc2nc(N)[nH]c(=O)c2N1	-5.7	i	2.0	-3	.	-213	-11
Cc1nonc1CC(=O)NC1CC(C)(C)Cc2c1cnn2-c1ccc(F)cc1 (stereo unspecified)	1.7	i	-1.8	-1	0.68	0.0	-7
COC(=O)c1ccc(COc2ccc(C)c(C)c2)o1	0.6	i	1.8	.	0.7	0.9	-2
CCOc1ccc(OCC)c(NC(=O)CCNS(=O)(=O)c2cc(Br)cnc2N)c1	1.8	i	-4.1	-13	0.65	-0.5	-7
CCOc1ccc(CC(=O)NC2CCN(Cc3ccccc3)CC2)cc1	1.7	i	-4.6	-15	0.72	4.5	-14
O=C(N/N=C/c1c[nH]c2ccc(Br)cc12)c1ccncc1	6.9	.	0.1	-2	.	.	18
CC(=O)N1c2ccc(S(=O)(=O)NCCC(=O)Nc3cccc(Cl)c3)cc2CC1C (stereo unspecified)	-0.8	i	2.8	7	0.61	2.1	17
Cc1ccc(CNC(=O)C2(S(=O)(=O)c3ccc(C)cc3)CC2)cc1	0.5	i	-4.5	.	0.69	1.0	-7
O=C(COC(=O)c1cccc(S(=O)(=O)N2CCCCCC2)c1)Nc1ccccc1	-1.7	i	.	.	0.7	2.0	8
O=c1nc(NO)ccn1C1CCCO1 (stereo unspecified)	-3.7	i	.	.	.	.	-3
Cc1ccc(NC(=O)c2cc3c(s2)CCCC3)cc1	-0.2	i	1.6	12	0.63	1.7	7
CCCOc1ccc(CNC(=O)c2ccc3nc(N4CCOCC4)sc3c2)cc1	-1.8	i	-2.8	-4	0.75	4.7	-4
CCCCOc1ccc(C(=O)N2CCNC(=O)C2CC(=O)OC(C)C)cc1 (stereo unspecified)	-2.7	i	0.4	-6	0.67	4.9	-14
COc1ccc(C(=O)c2cn(-c3cccc(Br)c3)nc2C(C)=O)cc1	-1.9	.	1.8	-14	0.66	4.0	-8
O=C(NCc1ccc2c(c1)OCO2)c1ccc(N2C(=O)C3CCCCC3C2=O)cc1 (stereo unspecified)	0.5	.	-2.5	-11	0.69	0.7	4
Cc1ccc(OCCn2c(=O)cnc3ccccc32)cc1	1.9	.	-3.8	3	0.73	-1.3	1
COc1ccc(NS(=O)(=O)c2cccc(N/C(=N\S(=O)(=O)c3ccccc3)c3ccc(F)cc3)c2)cc1	2.0	i	3.7	-2	.	.	1
O=C(Nc1ccccc1N1CCCC1)c1cccnc1	-5.0	.	-0.3	98*	0.73	4.2	-5
CSc1ccccc1NC(=O)COC(=O)c1ccccc1Cc1ccccc1	-1.8	.	0.6	.	0.67	2.4	1
O=C(NC(=S)Nc1ccc(Cc2ccncc2)cc1)c1ccccc1Cl	-1.9	.	-0.8	0	0.7	2.5	2
O=c1cc(O)c(-c2cccc(Cl)c2)c(Cl)[nH]1	-0.1	.	-1.1	5	0.74	2.4	9
SMILES	HNF4A DNA FP	FGF22 binding	LANA-H2B inh	ALR inh	Ecoli growth	UCH37 DUB inh	Beta2AR agonist
CCOc1cc(NC(=O)Nc2ccccc2)c(OCC)cc1NC(=O)CC	-0.4	i	7.8	-86	0.7	0.5	-7
O=C(NCC(=O)N1CCOCC1)c1ccc(Br)cc1	-5.3	i	15	0	0.71	3.6	-1
Cc1cc(C)n2nc(SC(C)C(=O)Nc3ccc(Cl)cn3)nc2n1 (stereo unspecified)	2.4	i	1.1	2	0.69	1.5	-19
Cc1ccccc1Cn1c(=N)n(CC(O)c2ccco2)c2ccccc21 (stereo unspecified)	0.3	.	-1.7	1	0.72	-2.0	-4
O=C(/C=C/c1ncc(C(F)(F)F)cc1Cl)OCc1ccccc1	4.2	i	-1.7	19	0.66	4.4	3
O=S(=O)(c1ccccc1)[C@@]1(c2ccccc2)C[C@@H]2ON=C(c3cccc(-c4ccccc4)c3)[C@@H]2C1	-3.8	i	0.6	-5	.	-2.6	-8
O=S(Cc1ccccc1)c1ccccc1 (stereo unspecified)	2.6	i	.	.	.	.	-2
CC(C)OC(=O)c1cccc(NC(=O)CSc2nnc(N)s2)c1	-3.1	i	0.8	-4	0.69	2.8	-2
COc1ccc(C)cc1NC(=O)COC(=O)c1c(C)nn(-c2ccccc2)c1C	3.0	i	1.2	-1	0.64	0.0	-3
Cc1ccc(NS(=O)(=O)c2c(C)[nH]c(C)c2C(=O)N2CCCCC2)c(C)c1	1.1	i	-5.8	12	0.69	2.9	5
CCOC(=O)N1CCN(S(=O)(=O)c2ccc(C(=O)Nc3ccc(F)cc3F)cc2)CC1	-2.3	.	0.3	-3	0.69	2.4	8
C/C(=N\NC(=O)c1cc(-c2ccccn2)nc2ccccc12)c1cccc([N+](=O)[O-])c1	1.1	i	-5.6	-1	.	.	-9
COc1cc(OC)cc(C(=O)OCC(=O)NC2CCCCCC2)c1	2.5	i	-2.3	-1	0.7	-0.5	-5
COc1ccc(NC(=S)NC(NC(=O)c2ccccc2Cl)C(Cl)(Cl)Cl)c([N+](=O)[O-])c1 (stereo unspecified)	1.4	i	-2.5	4	0.69	4.6	12
Cc1cccc(NS(=O)(=O)c2c(C(=O)N3CCCC3)c(C)n(C)c2C)c1	4.9	i	4.4	-4	0.64	0.8	-4
O=C(CCn1c(=O)c2ccccc2n(CC(=O)NCCC2=CCCCC2)c1=O)NCc1ccco1	0.6	.	5.1	0	0.8	3.0	-11
COc1cc(S(=O)(=O)N2CCN(Cc3ccc4c(c3)OCO4)CC2)c(C)cc1C	3.5	i	4.0	.	0.78	5.6	2
N#C/C(=C\c1ccc(C(=O)O)cc1)c1ccccn1	-3.1	i	-2.6	-6	.	2.6	-8
CN(C)C(CNC(=O)c1cccc(S(=O)(=O)NCc2ccccc2)c1)c1ccccc1 (stereo unspecified)	-2.3	.	.	.	0.68	1.3	-5
Cc1cc(O)c(C(C[N+](=O)[O-])c2ccc(Cl)cc2Cl)c(=O)o1 (stereo unspecified)	-0.2	.	-9.5	8	0.64	3.6	0
CCC(Cc1ccccc1)OC(=O)c1ccccc1C(=O)O (stereo unspecified)	1.7	i	.	.	0.71	0.5	5
NC(=O)NC(=O)CC1S/C(=N/N=C2\CSC(=O)N2)NC1=O (stereo unspecified)	1.2	i	0.5	85*	.	.	6
CCOc1ccc(NC(=O)CSc2nnc(C)n2C2CC2)cc1S(=O)(=O)N1CCCC1	4.1	i	.	.	0.7	2.9	-2
COc1ccc(C(=O)NCCCSC)cc1OC1CCN(C(C)C)CC1	-2.3	i	3.6	-3	0.71	4.9	-5
O=C(O)C1CCN(S(=O)(=O)c2ccc(N3CCCC3C(=O)O)c([N+](=O)[O-])c2)CC1 (stereo unspecified)	3.9	i	-3.9	-2	0.67	5.8	1
SMILES	HNF4A DNA FP	FGF22 binding	LANA-H2B inh	ALR inh	Ecoli growth	UCH37 DUB inh	Beta2AR agonist
CCC(=O)Nc1c2c(nn1-c1ccc(F)cc1)CS(=O)(=O)C2	-1.9	i	2.3	-3	0.67	3.8	4
O=C1C(=O)N(CCCN2CCOCC2)C(c2ccc([N+](=O)[O-])cc2)/C1=C(\O)c1ccc2c(c1)OCCO2 (stereo unspecified)	2.5	i	-5.5	32	0.64	12	-1
CCOC(=O)c1cc2n(c1/N=C/N(C)C)-c1ccccc1C2=O	-15	.	8.8	0	.	.	13
COc1ccccc1N1CCN(Cc2cccs2)CC1	3.0	i	-8.0	?	0.64	2.1	3
COCCNc1oc(COc2cccc(C)c2)nc1C#N	-6.1	.	-2.2	1	0.7	3.6	-10
CCN(CC)CCCNC(=O)C(C)n1c2ccccc2c2nc(=O)cc(C)n21 (stereo unspecified)	-2.0	i	3.4	-2	0.68	-0.6	-3
Cc1ccc(C)c(C(=O)CN2C(=O)C(=O)N(C3CCCC3)C2=O)c1	3.9	i	-4.4	0	0.64	1.4	-1
CCOC(=O)c1cccc(C2=CC(=O)C[C@H](c3ccc(Cl)cc3)C2)c1	1.0	i	6.6	1	.	0.0	-6
Nc1ccc(S(=O)(=O)Nc2nccs2)cc1	3.2	i	.	.	0.65	2.6	4
COc1cc2c(cc1OC)C(c1ccc(Br)cc1)NC(=O)C2 (stereo unspecified)	2.1	i	2.4	5	0.69	3.7	-6
COC(=O)c1ccccc1NC(=O)c1cc(-c2ccco2)on1	4.4	i	-1.1	11	0.7	-5.5	27
Nc1nncn1C(=O)c1c(Cl)cccc1Cl	3.6	.	-4.4	-5	0.74	2.4	-3
Cc1cc(F)ccc1NC(=O)C1CCN(S(=O)(=O)c2ccc3c(c2)CCCC(=O)N3)CC1	-0.5	i	-0.6	-3	0.7	1.7	-1
CCC(=O)Nc1ccc(NC(=O)CSc2nnc(-c3ccc(O)cc3)n2CC2CCCO2)cc1 (stereo unspecified)	0.5	i	0.1	.	0.67	1.4	-8
CCOC(=O)c1ccccc1NC(=O)CSc1nnnn1C1CCCCC1	-2.8	.	3.1	-1	0.72	3.0	-2
CCCCNCc1cc(Br)c(OCC(=O)N2CCOCC2)c(OC)c1	-1.6	.	1.2	-4	0.72	3.9	-2
O=C(Cn1nnc(-c2cc(Cl)ccc2-n2cnnn2)n1)N1CCCc2ccccc21	-2.1	.	-5.4	-16	0.67	-0.2	-14
COc1ccc(NC2CCCN(C(=O)c3cccs3)C2)cc1 (stereo unspecified)	3.4	i	-0.8	99*	0.7	1.8	-2
O=C(COC(=O)c1cnccn1)c1ccc(Cl)c([N+](=O)[O-])c1	5.5	i	-2.3	42	0.63	2.2	3
O=[N+]([O-])c1cc(S(=O)(=O)N2CCCC2)ccc1N/N=C/c1ccccn1	-0.5	i	1.1	20	.	.	28
CC(=O)c1sc(NC(=O)c2ccccc2F)nc1C	2.4	i	0.8	-1	0.74	7.1	-22

Given bar-delimited: part of the list above.
compound | HNF4A DNA FP | FGF22 binding | LANA-H2B inh | ALR inh | Ecoli growth | UCH37 DUB inh | Beta2AR agonist
Cc1cc(O)c(C(C[N+](=O)[O-])c2ccc(Cl)cc2Cl)c(=O)o1 (stereo unspecified) | -0.2 | . | -9.5 | 8 | 0.64 | 3.6 | 0
CCC(Cc1ccccc1)OC(=O)c1ccccc1C(=O)O (stereo unspecified) | 1.7 | i | . | . | 0.71 | 0.5 | 5
NC(=O)NC(=O)CC1S/C(=N/N=C2\CSC(=O)N2)NC1=O (stereo unspecified) | 1.2 | i | 0.5 | 85* | . | . | 6
CCOc1ccc(NC(=O)CSc2nnc(C)n2C2CC2)cc1S(=O)(=O)N1CCCC1 | 4.1 | i | . | . | 0.7 | 2.9 | -2
COc1ccc(C(=O)NCCCSC)cc1OC1CCN(C(C)C)CC1 | -2.3 | i | 3.6 | -3 | 0.71 | 4.9 | -5
O=C(O)C1CCN(S(=O)(=O)c2ccc(N3CCCC3C(=O)O)c([N+](=O)[O-])c2)CC1 (stereo unspecified) | 3.9 | i | -3.9 | -2 | 0.67 | 5.8 | 1
CCC(=O)Nc1c2c(nn1-c1ccc(F)cc1)CS(=O)(=O)C2 | -1.9 | i | 2.3 | -3 | 0.67 | 3.8 | 4
O=C1C(=O)N(CCCN2CCOCC2)C(c2ccc([N+](=O)[O-])cc2)/C1=C(\O)c1ccc2c(c1)OCCO2 (stereo unspecified) | 2.5 | i | -5.5 | 32 | 0.64 | 12 | -1
CCOC(=O)c1cc2n(c1/N=C/N(C)C)-c1ccccc1C2=O | -15 | . | 8.8 | 0 | . | . | 13
COc1ccccc1N1CCN(Cc2cccs2)CC1 | 3.0 | i | -8.0 | ? | 0.64 | 2.1 | 3

Not all compounds are listed; the hit share may differ from the screen's.
